PINK1 modulator – changes PINK1 expression | PINK1 immunofluorescence, high-content cytometry, 24 h | Potency, µM (doses to about 76.6 µM), for inactives: at the top dose activation (PINK1 increase), hits mostly activators | 0.2% of 410,000 active; active = well fitted activation curve with a large enough effect; inconclusive = small, poorly fitted or top-dose-only effect; inactive = flat fitted curve, though single readings scatter; cell line not stated here;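 also: potency is read from the fitted curve at half-maximal effect; % of control where 0% means no effect; nearly all actives have a fitted effect of over 65% in size; a mitochondrial uncoupler was the plate control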
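Cells are seeded, rested 12 hours, then given compound at five concentrations or DMSO for 24 hours. After fixation, blocking and antibody staining, PINK1 amount and mitochondrial localization are scored; CCCP serves as control.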
TRPML1 blocker – inhibitors of human TRPML1 channel; TRPML1-inducible cells, Ca2+ dye fluorescence, FDSS; hits give low values; inhibition of EC80 agonist-evoked calcium signal; activity change, negative = inhibition, % (concentration not given with the values); 0.02% of 390,000 active; in the data active means activity change below about -50%; inconclusive means about -30% to -50%; inactive means above about -30%;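 also: stimulus is agonist 54-4 at its EC80 concentration; % is scaled to controls: 0 for no effect and ±100 for the full control effect; compound concentration not given in the record; the text of the record puts the active cut at -80%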
Target sequence (Q9GZU1 whole entry, looked up): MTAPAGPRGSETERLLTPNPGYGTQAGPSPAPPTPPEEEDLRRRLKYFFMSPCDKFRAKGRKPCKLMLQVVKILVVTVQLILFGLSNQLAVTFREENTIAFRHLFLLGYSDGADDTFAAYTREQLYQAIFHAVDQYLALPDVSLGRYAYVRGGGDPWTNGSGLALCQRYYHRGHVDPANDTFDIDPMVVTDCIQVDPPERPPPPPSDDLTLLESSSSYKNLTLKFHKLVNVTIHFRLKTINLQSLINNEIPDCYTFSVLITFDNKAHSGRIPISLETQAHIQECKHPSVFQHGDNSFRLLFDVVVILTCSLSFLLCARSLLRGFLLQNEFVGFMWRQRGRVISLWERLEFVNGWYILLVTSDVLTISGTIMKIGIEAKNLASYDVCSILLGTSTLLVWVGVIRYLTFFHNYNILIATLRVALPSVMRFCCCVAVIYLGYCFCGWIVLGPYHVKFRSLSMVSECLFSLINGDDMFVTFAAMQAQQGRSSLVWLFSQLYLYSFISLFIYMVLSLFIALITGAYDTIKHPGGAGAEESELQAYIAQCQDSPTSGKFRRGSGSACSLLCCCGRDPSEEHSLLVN
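TRPML1-DL cells, Tet-induced overnight (~16 h, 37 °C) at 1,500 cells/well, were loaded with Ca8 no-wash dye plus quencher for 45-90 min at room temperature. Compounds were pinned during FDSS kinetic reading; agonist 54-4 at EC80 (4 uM final) then added.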
D2 agonist – activates the human D2 dopamine receptor; DiscoveRx PathHunter D2 beta-arrestin, luminescence, 90 min; 100% = 57 uM dopamine signal; activation, % (no concentration beside the values); 0.084% of 360,000 active; P14416; in the data active = activation above about 40%; inconclusive = about 15% to 40%; inactive = below about 15%; also: compound concentration not given in the record; the text of the record calls up to 30% inactive
Target sequence (P14416 whole entry, looked up): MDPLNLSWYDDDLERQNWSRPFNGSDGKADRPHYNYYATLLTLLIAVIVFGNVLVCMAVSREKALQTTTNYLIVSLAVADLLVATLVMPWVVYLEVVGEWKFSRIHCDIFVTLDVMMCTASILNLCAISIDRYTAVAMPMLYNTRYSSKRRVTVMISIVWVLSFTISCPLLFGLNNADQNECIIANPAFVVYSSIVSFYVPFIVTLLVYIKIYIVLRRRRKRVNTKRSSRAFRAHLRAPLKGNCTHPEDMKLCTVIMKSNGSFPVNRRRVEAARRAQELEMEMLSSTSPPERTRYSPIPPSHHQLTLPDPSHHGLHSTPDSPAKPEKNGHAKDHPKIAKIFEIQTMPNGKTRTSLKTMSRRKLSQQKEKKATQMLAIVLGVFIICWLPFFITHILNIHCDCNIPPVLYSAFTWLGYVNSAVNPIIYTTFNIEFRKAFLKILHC
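DiscoveRx PathHunter D2 beta-arrestin cells (2,100/well) attached overnight, then compound-stimulated 90 min at 37 C in HBSS/10 mM HEPES/0.1% Tween-20 buffer; beta-galactosidase complementation read by luminescence after 1 h at ambient temperature. Dopamine 57 uM final (EC100) as control.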
CtBP-E1A blk – CtBP/E1A binding inhibition; AlphaScreen GST-E1A/His-CtBP binding, 1536-well; hits give low values; control for the full effect not named in the record; activity change, % (test concentration not listed); 0.49% of 340,000 active; in the data active means activity change below about -65%; inconclusive means about -30% to -65%; inactive means above about -30%; also: % is scaled to controls: 0 for no effect and ±100 for the full control effect; compound concentration not given in the record
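Steps: dispense buffer (Tris pH 8.0, NaCl 300 mM, TCEP 1 mM, BSA, Tween 20); add 5X protein mix (GST-E1A, His-CtBP, 125 nM each); pin 23 nL compound; 2 h at 37 °C, dark; add 5X beads (50 ug/mL); 1 h; read.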
TRPML1 agonist – human mucolipin-1 channel agonism; activation, % (concentration not given with the values); Q9GZU1; AID 624414; TRPML1-expressing cells, Ca2+ dye fluorescence, FDSS; host cell line not named in the record; reference of the full effect not given here; 0.12% of 410,000 active; in the data active = activation above about 50%; inconclusive = about 30% to 50%; inactive = below about 30%; also: 0% is about no effect; the text of the record puts the active cut at 80%
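Calcium fluorescence on an FDSS kinetic reader gave the read-out. Tet-induced TRPML1-DL cells were plated overnight, dye-loaded (Ca8 with quencher, 45-90 min, room temperature, dark), then read 110 s after compound addition, and again 110 s after 4uM final 54-4 (EC80).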
Six1-Eya2 inh – blocks human Six1 binding to Eya2; Q15475+O00167; AlphaScreen GST-Six1/His-Eya2 binding, biochemical; hits give low values; control for the full effect not named in the record; activity change, % (no concentration beside the values); 0.56% of 360,000 active; AID 651725; in the data active = activity change below about -65%; inconclusive = about -30% to -65%; inactive = above about -30%; also: % is scaled to controls: 0 for no effect and ±100 for the full control effect; compound concentration not given in the record
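AlphaScreen luminescence read after one hour at 37 °C in darkness. Pin-transferred compounds met GST-Six1 and His-Eya2 protein (5X stock 250 nM/500 nM) plus glutathione donor and Ni-chelate acceptor beads (5X, 50 ug/mL).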
* marks the source's active call; other numbers are inactive results; [ ] = dose if it differs, or a comment.

Start of the data: the first 3 records, ahead of the listing:
Results for CC(=O)N1c2ccccc2C2CCCC[C@@H]21 (stereo not given in full) ?
PINK1 modulator: 1.9%; TRPML1 blocker: -3.6; D2 agonist: -2.3; CtBP-E1A blk: 5.9; TRPML1 agonist: 0.1; Six1-Eya2 inh: 15.2

How did CCN1CCN(C(=O)CSc2nc(N)cc(N)n2)CC1 do in these assays?
PINK1 modulator: 2.1%; TRPML1 blocker: -5.9; D2 agonist: inconclusive; TRPML1 agonist: 1.0; Six1-Eya2 inh: -15.2

How did c1cc(-n2cnnn2)ccc1NC1=NCCC1 do in these assays?
PINK1 modulator: 0.0%; TRPML1 blocker: 4.5; D2 agonist: -1.0; CtBP-E1A blk: -1.4; TRPML1 agonist: -0.6; Six1-Eya2 inh: 1.4

All compounds of this part, from the start:
Results for CC(=O)N1c2ccccc2C2CCCC[C@@H]21 (stereo not given in full) ?
PINK1 modulator: 1.9%; TRPML1 blocker: -3.6; D2 agonist: -2.3; CtBP-E1A blk: 5.9; TRPML1 agonist: 0.1; Six1-Eya2 inh: 15.2

How did CCN1CCN(C(=O)CSc2nc(N)cc(N)n2)CC1 do in these assays?
PINK1 modulator: 2.1%; TRPML1 blocker: -5.9; D2 agonist: inconclusive; TRPML1 agonist: 1.0; Six1-Eya2 inh: -15.2

How did c1cc(-n2cnnn2)ccc1NC1=NCCC1 do in these assays?
PINK1 modulator: 0.0%; TRPML1 blocker: 4.5; D2 agonist: -1.0; CtBP-E1A blk: -1.4; TRPML1 agonist: -0.6; Six1-Eya2 inh: 1.4

What do the screens show for `COc1ccc(-c2noc(CSc3nnc(C)n3-c3ccc(OC)cc3)n2)cc1`?
PINK1 modulator: 1.2%; TRPML1 blocker: -5.6; TRPML1 agonist: -0.6

How did Cc1ccc(N2C(=O)CC(N3CCc4ccccc43)C2=O)cc1Cl (stereo not given) do in these assays?
PINK1 modulator: 6.5%; TRPML1 blocker: 18.8; D2 agonist: -2.8; CtBP-E1A blk: 7.6; TRPML1 agonist: 0.2; Six1-Eya2 inh: -3.4

How did COc1ccc(/C=C(/NC(=O)c2ccccc2OC)C(=O)Nc2ccc(C(=O)O)cc2)cc1 do in these assays?
PINK1 modulator: 2.1%; TRPML1 blocker: 10.2; D2 agonist: 0.0; CtBP-E1A blk: -2.1; TRPML1 agonist: -0.2; Six1-Eya2 inh: -2.8

Results for COC(=O)c1sc2cc(C(F)(F)F)cnc2c1-c1ccccn1 ?
PINK1 modulator: -0.6%; TRPML1 blocker: 5.9; D2 agonist: -4.2; CtBP-E1A blk: 6.3; TRPML1 agonist: 1.4; Six1-Eya2 inh: 7.2

Results for COc1ccc(N2CCN(c3oc(-c4ccc(OC)c(OC)c4)nc3C#N)CC2)cc1 ?
PINK1 modulator: 6.3%; TRPML1 blocker: 2.1; D2 agonist: -1.7; CtBP-E1A blk: 0.3; TRPML1 agonist: 3.7; Six1-Eya2 inh: -0.1

What do the screens show for `CCCn1nnc(NC(=S)NC(=O)/C=C/c2ccc(Cl)cc2)n1`?
PINK1 modulator: -1.5%; TRPML1 blocker: 3.5; D2 agonist: 0.8; CtBP-E1A blk: 9.9; TRPML1 agonist: 6.3; Six1-Eya2 inh: -2.5

What do the screens show for `CCOC(=O)c1c(C)oc2ccc(NS(=O)(=O)c3ccc4c5c(cccc35)C(=O)N4)cc12`?
PINK1 modulator: 15.3%[38.3 µM]; TRPML1 blocker: 25.8; D2 agonist: 3.4; CtBP-E1A blk: 13.2; TRPML1 agonist: 1.1; Six1-Eya2 inh: -15.0

How did CC(=O)c1ccc(S(=O)(=O)N2CCN(C(C)C(=O)N(C)Cc3ccccc3)CC2)cc1 (stereo not given) do in these assays?
PINK1 modulator: 0.3%; TRPML1 blocker: 6.0; D2 agonist: -1.8; TRPML1 agonist: -0.8; Six1-Eya2 inh: 3.3

What do the screens show for `Cn1c(=O)c2cc(NC(=S)NC3CC3)ccc2n1Cc1ccccc1`?
PINK1 modulator: 0.4%; D2 agonist: 7.4; CtBP-E1A blk: 1.3; TRPML1 agonist: -0.5; Six1-Eya2 inh: -8.4

What do the screens show for `CC(C)CC1NC(=O)N(CC(=O)Nc2ccc3c(c2)OCCO3)C1=O` (stereo not given)?
PINK1 modulator: 1.3%; TRPML1 blocker: -4.7; D2 agonist: -0.8; CtBP-E1A blk: -1.0; TRPML1 agonist: 0.6; Six1-Eya2 inh: 2.7

How did CCc1ccccc1N(C)C(=O)c1sc2nc3n(c(=O)c2c1C)CCCCC3 do in these assays?
PINK1 modulator: -1.1%; TRPML1 blocker: -7.6; TRPML1 agonist: -0.4

What do the screens show for `Cc1ccc(SCC(=O)OCC(=O)NC2(C#N)CCCCC2)cc1`?
PINK1 modulator: -1.2%; TRPML1 blocker: -4.8; D2 agonist: -1.7; CtBP-E1A blk: 3.6; TRPML1 agonist: 0.0; Six1-Eya2 inh: -0.5

Results for CC(=O)NC(=S)Nc1ccc(NC(=S)NC(=O)c2ccc([N+](=O)[O-])cc2)cc1 ?
PINK1 modulator: 6.5%; TRPML1 blocker: 8.8; D2 agonist: 3.0; CtBP-E1A blk: 2.3; TRPML1 agonist: 0.2; Six1-Eya2 inh: 18.6

How did Cc1cc(NCc2ccco2)n2c(nc3ccccc32)c1C#N do in these assays?
PINK1 modulator: 23.7%; TRPML1 blocker: 4.9; D2 agonist: 1.5; CtBP-E1A blk: -10.5; TRPML1 agonist: -0.4; Six1-Eya2 inh: -2.4

How did COc1ccc(S(=O)(=O)N/N=C(/C)c2ccncc2)cc1 do in these assays?
PINK1 modulator: -1.1%; TRPML1 blocker: -5.2; D2 agonist: -6.7; CtBP-E1A blk: -11.4; TRPML1 agonist: 0.0; Six1-Eya2 inh: -4.9

How did CCn1c(SCc2ccccc2)nc2ccccc2c1=O do in these assays?
PINK1 modulator: 14.6%; TRPML1 blocker: -13.4; D2 agonist: 2.0; CtBP-E1A blk: 25.4; TRPML1 agonist: 4.4; Six1-Eya2 inh: 16.0

What do the screens show for `O=C(NCc1ccccn1)C1CCN(S(=O)(=O)N2CCCC2)CC1`?
PINK1 modulator: 0.8%[38.3 µM]; TRPML1 blocker: 26.9; D2 agonist: -0.5; CtBP-E1A blk: -12.3; TRPML1 agonist: 0.3; Six1-Eya2 inh: -3.9

Results for CNc1nc(Oc2ccc3sc(C)nc3c2)c2sccc2n1 ?
PINK1 modulator: 8.6%; TRPML1 blocker: -13.3; D2 agonist: 1.5; CtBP-E1A blk: -2.2; TRPML1 agonist: 0.2; Six1-Eya2 inh: -0.7

What do the screens show for `Cc1ccc(S(=O)(=O)N2CCCCC2)cc1NS(=O)(=O)c1cccc(C(=O)O)c1`?
PINK1 modulator: -0.5%; TRPML1 blocker: 24.8; D2 agonist: 1.6; CtBP-E1A blk: -5.9; TRPML1 agonist: 0.6; Six1-Eya2 inh: 16.3

How did CN(c1cccc(NC(=O)c2ccccc2N(Cc2ccccc2)S(C)(=O)=O)c1)S(C)(=O)=O do in these assays?
PINK1 modulator: 0.1%; D2 agonist: -0.3; Six1-Eya2 inh: -0.5

How did Cc1ccnc(N2CCC(C(=O)Nc3nnc(C)s3)CC2)n1 do in these assays?
PINK1 modulator: -3.1%; TRPML1 blocker: -4.7; D2 agonist: 1.4; CtBP-E1A blk: 3.3; TRPML1 agonist: 0.0; Six1-Eya2 inh: 4.6

Results for O=C(COC(=O)c1cc(-c2ccccc2Cl)nc2ccccc12)Nc1ncc(C(F)(F)F)cc1Cl ?
PINK1 modulator: 14.2%; TRPML1 blocker: 22.5; D2 agonist: 0.0; CtBP-E1A blk: 5.9; TRPML1 agonist: 0.3; Six1-Eya2 inh: 5.1

How did CCC(NC(=O)c1ccccc1NC(=O)c1ccco1)C(=O)NNC(=O)c1ccc(OC)cc1 (stereo not given) do in these assays?
PINK1 modulator: 0.2%; TRPML1 blocker: -2.3; D2 agonist: 4.5; CtBP-E1A blk: -0.4; TRPML1 agonist: -0.4; Six1-Eya2 inh: -12.4

How did COc1ccc(-n2nc(C(=O)NCC(=O)Nc3cccc(Cl)c3)c3ccccc3c2=O)cc1 do in these assays?
PINK1 modulator: 11.8%; TRPML1 blocker: 14.3; D2 agonist: -2.7; CtBP-E1A blk: -1.1; TRPML1 agonist: 0.2; Six1-Eya2 inh: -2.9

Results for N#Cc1ccccc1CSc1nc(O)cc(=O)[nH]1 ?
PINK1 modulator: 1.3%; TRPML1 blocker: 4.3; D2 agonist: -2.5; CtBP-E1A blk: 2.8; TRPML1 agonist: 1.1; Six1-Eya2 inh: 2.5

What do the screens show for `CCSc1ccccc1C(=O)Nc1cccnc1`?
PINK1 modulator: 4.2%; TRPML1 blocker: 8.9; D2 agonist: -3.2; CtBP-E1A blk: 2.6; TRPML1 agonist: 0.2; Six1-Eya2 inh: -0.1

What do the screens show for `Cn1c(SCc2cccc(F)c2)nnc1-c1cnccn1`?
PINK1 modulator: 1.7%; TRPML1 blocker: -12.6; D2 agonist: -0.8; CtBP-E1A blk: 5.5; TRPML1 agonist: -0.3; Six1-Eya2 inh: -14.0

Results for CCCNS(=O)(=O)c1ccc(CCC(=O)N2CCC(C)CC2)cc1 ?
PINK1 modulator: -2.2%; TRPML1 blocker: 25.9; D2 agonist: -2.0; CtBP-E1A blk: 4.4; TRPML1 agonist: 0.1; Six1-Eya2 inh: 7.2

What do the screens show for `Cc1csc(NC(=O)CCCc2cccs2)n1`?
PINK1 modulator: 0.6%; TRPML1 blocker: 2.6; D2 agonist: -3.6; CtBP-E1A blk: -6.4; TRPML1 agonist: -0.1; Six1-Eya2 inh: -2.2

How did O=[N+]([O-])c1ccc(Sc2cccc3cccnc23)c([N+](=O)[O-])c1 do in these assays?
PINK1 modulator: -2.0%; TRPML1 blocker: -8.5; D2 agonist: 0.6; CtBP-E1A blk: -97.9*; TRPML1 agonist: 1.8; Six1-Eya2 inh: -94.4*

What do the screens show for `COc1ccc(Br)cc1CN(C)C(=O)C1CC(=O)N(C2CCCC2)C1` (stereo not given)?
PINK1 modulator: 1.9%; TRPML1 blocker: 3.7; D2 agonist: -4.4; CtBP-E1A blk: 6.9; TRPML1 agonist: 0.3; Six1-Eya2 inh: 2.0

How did COc1cc(-c2nc(-c3ccccc3)c(-c3cc([N+](=O)[O-])ccc3C)[nH]2)cc(OC)c1OC do in these assays?
PINK1 modulator: 3.8%; TRPML1 blocker: 18.9; D2 agonist: 0.1; CtBP-E1A blk: -25.8; TRPML1 agonist: -0.4; Six1-Eya2 inh: inconclusive

What do the screens show for `CC(C)CCN1CCNC(=O)C1CC(=O)N(C)CCCN1CCOCC1` (stereo not given)?
PINK1 modulator: 1.1%; TRPML1 blocker: -26.2; D2 agonist: -0.8; CtBP-E1A blk: -0.3; TRPML1 agonist: -0.3; Six1-Eya2 inh: 5.6

What do the screens show for `O=C(COc1nncc2ccccc12)Nc1ccc(Br)cc1F`?
PINK1 modulator: 3.1%; TRPML1 blocker: -10.9; D2 agonist: 2.6; CtBP-E1A blk: -3.9; TRPML1 agonist: -0.1; Six1-Eya2 inh: 1.7

Random draw from the library; about 1% have a hit in one of these screens.
